# PrP UTR inh – suppresses PrP 5' UTR mRNA reporter expression; cell-based PrP 5' UTR mRNA reporter, plate reader; inhibition, % (test concentration not listed); hit rate 0.35% among 340,000; AID 488862;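 active = every replicate at 50% or more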;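 note: 0 = median of the neutral control wells; tested in H4 reporter cells; numbers are from one replicate; inactives centre near -14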
# Mtb hypoxia rep – inhibitors of hypoxia-regulated fluorescent reporter in Mycobacterium tuberculosis; M. tuberculosis hypoxia-regulated fluorescent reporter, fluorescence; fluorescence inhibition, % (test concentration not listed); hit rate 0.1% among 300,000; AID 1159583;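 active = 35 to 45% if threefold the growth effect, above 45% if 1.5-fold the growth effect; inactive = the rest, general growth blockers included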;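 note: wells of about 50 µL received 100 nL stock; 0% = vehicle wells and 100% = reference inhibitor wells; whole bacteria with a GFP reporter of the hypoxia response; strong numbers were not always called active; many hits fall short of the cut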
# Autofluor counter – compound fluorescence in toxin protease inhibitor counterscreen; hit rate 3.1% among 360,000; fluorescence intensity (concentration not given with the values); compound autofluorescence counterscreen, microsphere flow cytometry; active compounds read high; AID 624483;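 active = at least 3 SD above the mean of all compounds, about 16000 in these data; inconclusive = too few beads counted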;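 note: 100 nL of 1 mM stock went into each well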
# BJeLR lethal – BJeLR cell viability loss | BJeLR (HRASV12) viability, CellTiter-Glo ATP luminescence, 48 h; reference of the scale not given here | inhibition, % (concentration not given with the values) | hit rate 0.17% among 300,000 | AID 1554;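 active = replicate mean above 50%; inconclusive = above 50% but judged a plate artefact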;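 note: 50 nL library stock added to about 25 µL; numbers are from one replicate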
# Sa RN4220 lethal – kills Staphylococcus aureus RN4220; inhibition, % (test concentration not listed); AID 1259311; hit rate 0.33% among 330,000; S. aureus RN4220 growth, OD600, 16 h;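 active = z-score of -3 or lower and OD600 up to 0.18 on both plates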;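 note: plate controls were untreated cells for no effect and reference antibiotic for full effect; stock transfer was 100 nL into about 80 µL; one replicate is shown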
# ugtP null kill – growth inhibition of S. aureus ugtP deletion strain | growth inhibition, % (test concentration not listed) | hit rate 0.54% among 330,000 | S. aureus RN4220 ugtP deletion, OD600 growth, 16 h; some inactives read as strong as hits;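 active = z-score under -3 and OD600 up to 0.15 on both plates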;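 note: plate controls were untreated wells for no effect and antibiotic for full effect; wells of about 80 µL received 100 nL stock; the first replicate is given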
# Mtb hypoxia rep growth – second read-out of Mtb hypoxia rep, no call of its own (marks repeat the call); growth inhibition, %; measured here: M. tuberculosis growth (absorbance);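 0% = vehicle and 100% = reference antibiotic; read after six days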
# An asterisk follows results filed as active; ? = inconclusive; · = not tested or not shown; & = joins results of further samples. Not a hit list (roughly 4.1% active in at least one column).
SMILES,PrP UTR inh,Mtb hypoxia rep,Mtb hypoxia rep growth,Autofluor counter,BJeLR lethal,Sa RN4220 lethal,ugtP null kill
Cc1cc(C)n(-c2ncnc3ccccc23)n1,-21,-5,-1,3331,16,-1.6,-11
Cc1ccccc1NC(=O)CSc1ccsc1[N+](=O)[O-],-8,·,·,2171,7,·,·
Cc1cc[n+](CC(=O)c2ccc(NC(=O)c3ccccc3)cc2)cc1,-40,3,5,5185,-7,-0.2,6
COc1ccc(NC(=O)N(C)C[C@H]2Oc3ccc(NC(=O)C4CCCCC4)cc3C(=O)N([C@H](C)CO)C[C@@H]2C)cc1,-18,9,9,3960,·,-16,-2
COCCN(CCOC)S(=O)(=O)c1ccc(C(=O)Nc2ccc(S(=O)(=O)Nc3nccc(C)n3)cc2)cc1,-12,13,19,2490,-8,5.1,-3
O=C(Nc1ccc(-n2nncc2-c2ccco2)cc1)c1ccc(F)cc1,-27,4,-4,15839,-12,-3.6,-12
COC(=O)c1cc(OC)c(OC)cc1NC(=O)c1ccc(OC)c(OC)c1,-18,·,·,3853,10,5.4,6
CCOC(=O)c1[nH]c(COC(=O)C2CC(=O)N(Cc3ccccc3)C2)c(C(=O)OCC)c1C (configuration not stated),1,5,0,4445,-14,4.4,2
Cc1noc(C)c1COc1ccc(C(=O)OCC(=O)N2CC(=O)Nc3ccccc32)cc1,·,2,-2,9851,14,1.1,3
Cc1ccc(/C=C2\CC(C)CC3=C2NC(=S)NC3c2ccc(C)cc2)cc1 (configuration not stated),3,-4,-3,5349,2,-0.4,-3
COc1ccc(OCC(=O)N/N=C/c2ccc(O[C@@H]3O[C@H](CO)[C@@H](O)[C@H](O)[C@H]3O)cc2)cc1,-19,·,·,9234,-11,·,·
Cc1c(CN2CCCC(CO)(Cc3cccc(Cl)c3)C2)cnn1C (configuration not stated),-23,15,10,4077,-5,18,9
Cn1c(=O)cc(OCC(=O)NCc2ccccn2)c2ccccc21,-30,8,0,9151,-1,2.9,3
CCCn1c(COc2ccc(C(=O)O)cc2)nc2ccccc21,-21,-6,-11,4262,-9,4.1,17
COC(=O)c1ccc(NC(=S)NCCC2=CCCCC2)cc1,-10,6,9,7612,5,4.2,4
CC(NC(=O)COC(=O)CCN1C(=O)C2CC=CCC2C1=O)c1ccc(Br)cc1 (configuration not stated),-12,2,6,4273,·,4.7,-1
COc1ccc(NC(=O)NN2CCN(C)CC2)cc1OC,2,12,-8,5752,-11,0.7,0
O=C(CNS(=O)(=O)c1ccccc1)OCC(=O)c1ccc(Br)cc1,-19,1,-5,4045,2,3.7,5
CCN1c2ccccc2S(=O)(=O)c2ccccc21,-10,9,8,3485,8,5.6,8
COc1ccc2nc(NC(=O)CSc3nc(C)cc(C)n3)sc2c1,3,1,1,4348,-25,-0.7,14
NC(=O)c1ccc(OCC(F)(F)C(F)(F)C(F)(F)C(F)(F)C(F)(F)C(F)F)cc1,-20,2,9,7568,3,2.2,1
COc1ccc(-n2nc3c(=O)[nH][nH]c3cc2=O)cc1,-18,·,·,2222,-5,·,·
O=C(CN1CCCC1)Nc1sc2c(c1C(=O)Nc1ccc(Br)cc1)CCC2,-6,·,·,5797,0,·,·
CCCNC(=O)CN1C(=O)NC2(CCCc3cc(OC)ccc32)C1=O (configuration not stated),-16,8,6,9848,-3,3.4,4
Cc1cccc(N2CCN(S(=O)(=O)c3ccc4[nH]c(=O)ccc4c3)CC2)c1C,26,4,10,6047,6,-9.8,-3

# (listing goes on)
SMILES,PrP UTR inh,Mtb hypoxia rep,Mtb hypoxia rep growth,Autofluor counter,BJeLR lethal,Sa RN4220 lethal,ugtP null kill
Clc1ccc(C2=NN(c3ccccc3)C(c3ccco3)C2)cc1 (configuration not stated),-11,0,2,·,-1,-5.2,-3
Cc1ccccc1-c1nc(CN2CCCC(C(=O)NCc3cccnc3)C2)c(C)o1 (configuration not stated),-9,11,8,24766*,-5,3.5,6
CCS(=O)(=O)c1ccc2oc(SCC(=O)c3ccco3)nc2c1,-15,·,·,5072,-19,2.8,-5
CSc1ncnc2[nH]ncc12,-11,7,4,3950,·,3.0,11
CN(CC(CC1CCCCC1)N(CC(Cc1ccccc1)N(CCc1ccccc1)N=O)N=O)N=O (configuration not stated),·,2&21,13&9,·,·,-0.1&8.3,3&12
Cc1ccc(NC(=O)c2ccco2)c(NC(=O)c2ccccc2C)c1,-14,-11,-7,3387,-5,0.9,7
Cc1occc1-c1nnc(SCC(=O)c2ccc(F)cc2)o1,-34,1,0,10281,-4,3.0,-15
O=C(NC1CCCCC1)NC1CCN(S(=O)(=O)c2ccc3c(c2)OCCO3)CC1,-6,5,-2,·,1,1.3,-2
Cc1ccc(S(=O)(=O)c2c(C)cc(C)nc2Cl)cc1,3,·,·,2390,1,1.2,-1
COc1ccc(N(S(=O)(=O)c2ccccc2)S(=O)(=O)c2ccccc2)c(N)c1,-28,0,10,4033,6,5.9,6
O=c1[nH]c(C2CCCN(S(=O)(=O)c3ccccc3)C2)nc2c1nnn2Cc1ccccc1F (configuration not stated),-23,5,5,2850,-7,-3.2,-8
c1ccc(-c2nnc(OCc3cccnc3)c3ccccc23)cc1,-14,6,5,4558,2,-0.4,12
Cc1c(C(=O)OCC(C)C)[nH]c2c1C(=O)CC(c1cccs1)C2 (configuration not stated),9,0,1,3574,13,3.8,-2
CCCNC(=O)c1n[nH]c2c1CC(C(C)(C)CC)CC2 (configuration not stated),-9,9,4,3898,·,2.3,3
O=C(C(c1ccccc1)c1ccccc1)N1CCN(Cc2ccco2)CC1,0,8,3,8645,-16,6.3,19
CCc1ccc2[nH]c(=O)c(C(c3nnnn3CCOC)N3CCN(c4ccccc4)CC3)cc2c1 (configuration not stated),7,·,·,3730,1,4.5,-6
O=S1(=O)N=C(N/N=C/c2ccccn2)c2ccccc21,-22,·,·,1936,-5,·,·
COc1ccc2[nH]c(=O)c(CN(C3CCCCC3)C(c3nnnn3Cc3ccco3)C(C)C)cc2c1 (configuration not stated),-15,·,·,2659,2,·,·
O=S(=O)(c1cccc(S(=O)(=O)N2CCN(c3ncccn3)CC2)c1)N1CCOCC1,-2,·,·,3679,-2,0.8,5
CCOC(=O)CC1=C(C(=O)OCC)C(c2cccs2)C(C#N)=C(N)O1 (configuration not stated),-25,9,10,2631,1,2.5,-4
O=C(NC(=S)Nc1nc(-c2cccc([N+](=O)[O-])c2)cs1)c1ccccc1Cl,-23,8,12,4714,2,0.7,3
Cc1c(O)ccc2c(O)c(NC(=O)c3ccc4c(c3)CCC(C)(C)O4)c(=O)oc12,-2,4,9,2863,-8,12,3
Cc1ccc(NC(=O)CN(C)C2CCCCC2)cc1Br,-6,·,·,4249,1,0.9,10
COc1ccc(C2CC(c3ccc4ccccc4c3)=NN2C(=O)CN2C(=O)CCC2=O)cc1 (configuration not stated),-15,3,5,3218,-8,-2.2,10
c1ccc(-c2cc3n(c2)CCc2ccccc2-3)cc1,-60,9,2,3302,-2,-18,-7

# Single entries from the entries so far.
# ugtP null kill, CCc1ccc2[nH]c(=O)c(C(c3nnnn3CCOC)N3CCN(c4ccccc4)CC3)cc2c1 (configuration not stated) = -6
# Mtb hypoxia rep, Cc1ccc(NC(=O)c2ccco2)c(NC(=O)c2ccccc2C)c1 = -11

# Continuation:
SMILES,PrP UTR inh,Mtb hypoxia rep,Mtb hypoxia rep growth,Autofluor counter,BJeLR lethal,Sa RN4220 lethal,ugtP null kill
COc1ccc(CN2CCNC(=O)C2CC(=O)NCCc2c[nH]c3ccccc23)c(OC)c1 (configuration not stated),-25,6,4,4832,-3,6.8,4
CC(=O)c1c(C)nn(CC(O)COc2ccc3c(c2)CCC3)c1C (configuration not stated),-59,7,-1,6910,14,-2.4,-5
O=C(Cc1ccccc1)NC(Nc1ccccc1)C(Cl)(Cl)Cl (configuration not stated),-8,·,·,2636,7,1.4,-1
NC(=O)C1CCN(c2oc(-c3ccccc3F)nc2S(=O)(=O)c2ccc(Cl)cc2)CC1,4,·,·,5044,-7,3.6,-1
O=C(O)CC1c2cc(C(F)(F)F)ccc2S(=O)(=O)N1C1CCCCC1 (configuration not stated),·,13,15,·,·,9.5,1
COCc1c(C)cc(C)c(C=NO)c1C,·,-9,1,·,·,-0.4,1
Cc1ccc(S(=O)(=O)N(CC(=O)N/N=C\c2cccs2)c2cccc3cccnc23)cc1,-12,·,·,2610,-1,·,·
CCCCC1CCC(C(=O)N(C)CC(=O)Nc2cccc(F)c2)CC1 (configuration not stated),-31,5,-5,?,3,-4.7,6

# Structural class: those above containing four or more nitrogen atoms.
SMILES,PrP UTR inh,Mtb hypoxia rep,Mtb hypoxia rep growth,Autofluor counter,BJeLR lethal,Sa RN4220 lethal,ugtP null kill
Cc1cc(C)n(-c2ncnc3ccccc23)n1,-21,-5,-1,3331,16,-1.6,-11
COc1ccc(NC(=O)N(C)C[C@H]2Oc3ccc(NC(=O)C4CCCCC4)cc3C(=O)N([C@H](C)CO)C[C@@H]2C)cc1,-18,9,9,3960,·,-16,-2
COCCN(CCOC)S(=O)(=O)c1ccc(C(=O)Nc2ccc(S(=O)(=O)Nc3nccc(C)n3)cc2)cc1,-12,13,19,2490,-8,5.1,-3
O=C(Nc1ccc(-n2nncc2-c2ccco2)cc1)c1ccc(F)cc1,-27,4,-4,15839,-12,-3.6,-12
COc1ccc(NC(=O)NN2CCN(C)CC2)cc1OC,2,12,-8,5752,-11,0.7,0
COc1ccc2nc(NC(=O)CSc3nc(C)cc(C)n3)sc2c1,3,1,1,4348,-25,-0.7,14
COc1ccc(-n2nc3c(=O)[nH][nH]c3cc2=O)cc1,-18,·,·,2222,-5,·,·
Cc1ccccc1-c1nc(CN2CCCC(C(=O)NCc3cccnc3)C2)c(C)o1 (configuration not stated),-9,11,8,24766*,-5,3.5,6
CSc1ncnc2[nH]ncc12,-11,7,4,3950,·,3.0,11
CN(CC(CC1CCCCC1)N(CC(Cc1ccccc1)N(CCc1ccccc1)N=O)N=O)N=O (configuration not stated),·,2&21,13&9,·,·,-0.1&8.3,3&12
O=c1[nH]c(C2CCCN(S(=O)(=O)c3ccccc3)C2)nc2c1nnn2Cc1ccccc1F (configuration not stated),-23,5,5,2850,-7,-3.2,-8
CCc1ccc2[nH]c(=O)c(C(c3nnnn3CCOC)N3CCN(c4ccccc4)CC3)cc2c1 (configuration not stated),7,·,·,3730,1,4.5,-6
O=S1(=O)N=C(N/N=C/c2ccccn2)c2ccccc21,-22,·,·,1936,-5,·,·
COc1ccc2[nH]c(=O)c(CN(C3CCCCC3)C(c3nnnn3Cc3ccco3)C(C)C)cc2c1 (configuration not stated),-15,·,·,2659,2,·,·
O=S(=O)(c1cccc(S(=O)(=O)N2CCN(c3ncccn3)CC2)c1)N1CCOCC1,-2,·,·,3679,-2,0.8,5
O=C(NC(=S)Nc1nc(-c2cccc([N+](=O)[O-])c2)cs1)c1ccccc1Cl,-23,8,12,4714,2,0.7,3
COc1ccc(CN2CCNC(=O)C2CC(=O)NCCc2c[nH]c3ccccc23)c(OC)c1 (configuration not stated),-25,6,4,4832,-3,6.8,4
Cc1ccc(S(=O)(=O)N(CC(=O)N/N=C\c2cccs2)c2cccc3cccnc23)cc1,-12,·,·,2610,-1,·,·

# Two of the compounds above, with bars between the fields:
compound | PrP UTR inh | Mtb hypoxia rep | Mtb hypoxia rep growth | Autofluor counter | BJeLR lethal | Sa RN4220 lethal | ugtP null kill
Cc1ccc(S(=O)(=O)N(CC(=O)N/N=C\c2cccs2)c2cccc3cccnc23)cc1 | -12 | · | · | 2610 | -1 | · | ·
CCCCC1CCC(C(=O)N(C)CC(=O)Nc2cccc(F)c2)CC1 (configuration not stated) | -31 | 5 | -5 | ? | 3 | -4.7 | 6

# Source: PubChem
